# Mtb growth = Confirmatory growth inhibition assay against Mycobacterium tuberculosis H37Rv, potency (AID 1949). most inactive calls were filed without a number and no value below 0 was filed. inhibition, % at 10 µg/mL; hits with a dose series show IC50 in µg/mL. 1.6% of 100,000 active;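 active = confirmed in a dose series; inconclusive = about 50% or more but not retested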;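 also: bacteria grown 7 days with compound before Alamar blue readout; 0% = untreated bacteria and 100% = reference antibiotic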
# Numbers without * were called inactive; i = inactive; ? = inconclusive. These rows are one share of the data; the hit share may differ from the screen's.
canonical_smiles | Mtb growth
C=CCc1ccc(OCCCCN2CC(C)CC(C)C2)c(OC)c1 (stereo not drawn) | ?
CCC(=O)c1ccc(OCCCn2cnc3ccccc32)cc1 | ?
CCOc1cc(C=O)cc(Br)c1O | i
Cc1cc(OCC(=O)N2CCOCC2)c(C(C)C)cc1Cl | i
O=C(Cn1cc(C(=O)c2ccccc2)c2ccccc21)NCC1CCCO1 (stereo not drawn) | i
O=C(Nc1ccc(S(=O)(=O)N2CCc3ccccc32)cc1)C1CC1 | i
CCc1ccccc1NS(=O)(=O)c1ccc(Br)c(OC)c1 | i
CCN(CC)CCCOc1cccc(Cl)c1Cl | i
Cc1ccc(C)c(NC(=S)N2CCN(CCO)CC2)c1 | i
COC(=O)CCc1nc2ccccc2[nH]1 | i
CC(C)c1ccccc1NC(=O)COc1ccc(/C=C\c2[nH]c(=O)[nH]c(=O)c2[N+](=O)[O-])cc1 | i
O=C(c1cc(-c2ccccc2)on1)N1CCc2ccccc2C1 | 1%
N#Cc1ccc(OC(=O)N2CCOCC2)cc1 | i
O=C(Nc1cccc(Cl)c1Cl)c1ccncc1 | i
CC(=O)Nc1ccc(NC(=O)c2cccc(I)c2)cc1 | i
Cn1c(Sc2ccc([N+](=O)[O-])cn2)nc2ccccc21 | i
O=c1c(Cc2ccccc2)c(O)nc2n1CCCS2 | i
COc1ccc(S(=O)(=O)NNC(=S)NCC2CCCO2)c(OC)c1 (stereo not drawn) | i
CCOc1ccccc1NC(=O)CN(c1cccc(Cl)c1C)S(C)(=O)=O | i
COC(=O)c1sc(NC(=S)NC(C)c2cc(OC)ccc2OC)c(C(=O)OC)c1C (stereo not drawn) | i
COc1ccc(C(C)(C)C)cc1NC(=S)Nc1ccc(F)cc1F | i
C=CCn1c2ccccc2c2nc3ccccc3nc21 | 14%
O=C(Nc1cccc(C(F)(F)F)c1)C(=O)N1CCCCC1 | i
O=C(CN1C(=O)c2ccccc2C1=O)Nc1nnc(C2CCCO2)s1 (stereo not drawn) | i
Cc1cc(I)ccc1NC(=O)c1ccc2ccccc2c1 | i
CCOc1ccc(NC(=O)N(CC(C)C)CC(C)C)cc1 | ?
Cc1ccc(S(=O)(=O)N(C)c2ccc(C(=O)N3CCN(c4ccccc4)CC3)cc2)cc1 | i
O=C(NC(=S)Nc1ccc(N2CCCCC2)cc1)c1cccs1 | i
Cc1ccc(N(Cc2ccco2)C(=O)c2cccc(S(=O)(=O)N3CCOCC3)c2)cc1 | i
COc1ccc(NC(=O)CSc2nnc(-c3ccncc3)n2C)cc1 | i

# The last four records of the part before come first, to join the parts.
canonical_smiles | Mtb growth
Cc1ccc(S(=O)(=O)N(C)c2ccc(C(=O)N3CCN(c4ccccc4)CC3)cc2)cc1 | i
O=C(NC(=S)Nc1ccc(N2CCCCC2)cc1)c1cccs1 | i
Cc1ccc(N(Cc2ccco2)C(=O)c2cccc(S(=O)(=O)N3CCOCC3)c2)cc1 | i
COc1ccc(NC(=O)CSc2nnc(-c3ccncc3)n2C)cc1 | i
CCSc1ccccc1C(=O)Nc1cc(C)on1 | i
CCCCc1ccc(-n2c(-c3cccnc3)n[nH]c2=S)cc1 | i
O=C(Nc1cc(C(F)(F)F)ccc1Cl)C(Cc1ccccc1)N1C(=O)C2C3C=CC(C4CC34)C2C1=O (stereo not drawn) | 2%
CSc1cccc(NC(=O)CCc2ccc(S(=O)(=O)NC3CCCCC3)cc2)c1 | i
COc1ccc(-c2nc(SCc3ccccc3)n(S(=O)(=O)c3ccc(C)cc3)n2)cc1 | i
Cc1ccc(C)c(OCCCCNC(C)(C)C)c1 | i
CC1CN(C(=O)N2c3ccccc3Sc3ccccc32)CC(C)O1 (stereo not drawn) | i
Cc1ccccc1C(=O)Nc1ccccc1N1CCCC1 | i
CCOC(=O)C1CCCN(C(=S)Nc2ccc(OC)cc2OC)C1 (stereo not drawn) | i
CCn1cc(C(C)NC(=S)Nc2sc3c(c2C(=O)OC)CCCCC3)c(C)n1 (stereo not drawn) | i
CCOC(=O)c1c(NC(=O)COc2ccccc2OCC)sc(C)c1C | i
NC(=O)c1cc([N+](=O)[O-])ccc1NCCc1ccccc1 | i
Cc1cccc(N2CCN(C(=S)Nc3cccc(F)c3)CC2)c1C | i
O=C(Nc1ccc(NC(=S)NC(=O)c2cccs2)cc1)c1cc2ccccc2o1 | i
CCc1cc(Br)cc(CC)c1NC(=O)C(Cc1ccccc1)N1C(=O)C2C3C=CC(C3)C2C1=O (stereo not drawn) | 7%
C=CCn1c(COc2cccc(C)c2C)nnc1SCC(=O)N1CCN(c2ccccc2)CC1 | i
COc1ccc(N2CCN(Cc3nc(-c4ccc(Cl)cc4Cl)no3)CC2)cc1 | 41%
Cc1cccc(C(=O)NCc2nnc(SCC(=O)NCc3ccccc3)n2C)c1 | i
CCCC(=O)NC(=S)Nc1ccccc1N1CCOCC1 | i
CCC1C(=O)C(C)(C)C(=O)OC1c1ccc(Cl)cc1Cl (stereo not drawn) | i

# A second format for part of the listing above:
> C=CCn1c(COc2cccc(C)c2C)nnc1SCC(=O)N1CCN(c2ccccc2)CC1
- Mtb growth = i
> COc1ccc(N2CCN(Cc3nc(-c4ccc(Cl)cc4Cl)no3)CC2)cc1
- Mtb growth = 41%
> Cc1cccc(C(=O)NCc2nnc(SCC(=O)NCc3ccccc3)n2C)c1
- Mtb growth = i
> CCCC(=O)NC(=S)Nc1ccccc1N1CCOCC1
- Mtb growth = i

# The list continues:
canonical_smiles | Mtb growth
Cc1ccc(C(=O)N2CCN(c3ccc(NC(=O)c4ccccc4Br)cc3)CC2)cc1 | 9%
Cc1cc(C)nc(SCc2nnc(SCC(=O)NC3CCCCC3)n2-c2ccccc2)n1 | i
Cc1ccc(-c2nnc(SCc3ccccc3C#N)n2-c2ccccc2)cc1Cl | i
COc1ccc(N2CCN(C(=O)c3ccc(F)cc3)CC2)c([N+](=O)[O-])c1 | 3%
CCn1c(SCC(=O)NCc2ccccc2)nc2scc(-c3ccccc3)c2c1=O | i
COc1cc(S(=O)(=O)N2CCCCC2)ccc1NC=O | i
COC(=O)c1cc(NC(=S)NC(=O)c2ccc(Cl)cc2)cc(C(=O)OC)c1 | i
O=c1c2c(-c3cccc([N+](=O)[O-])c3)csc2ncn1Cc1ccc(Br)cc1 | i
COC(=O)c1ccccc1NC(=O)Nc1cc(C)cc(C)n1 | i
Cc1c(NC(=O)CN(c2cccc(C(F)(F)F)c2)S(=O)(=O)c2ccccc2)c(=O)n(-c2ccccc2)n1C | 6%
CCN(CC)c1ccc(N2C(=O)/C(=C\c3cccs3)SC2=S)cc1 | i
COc1ccc(NC(=S)Nc2ccccc2C(F)(F)F)cc1 | i
Cc1cccc(OCC(O)CN2C(C)(C)CC(O)CC2(C)C)c1 (stereo not drawn) | i
COC(=O)c1cc(OC)c(OC)cc1NC(=O)Nc1ccc(F)cc1F | i
Cc1ccc(-c2noc(CCCN3C(=O)c4ccccc4C3=O)n2)cc1 | i
CCOC(=O)CN(C1=NS(=O)(=O)c2ccccc21)c1ccccc1 | i
C=CCNC(=S)NC(=O)c1ccc(OC)cc1 | 1%
CCOc1ccc(C(=O)Nc2ccccc2NC(=O)c2ccc(OCC)cc2)cc1 | i
C=CCNC(=O)Nc1ccc(OCC)cc1 | i
COCCCNCCCCOc1ccc(C)cc1Br | i

# Next part; the last 3 above are carried over.
SMILES | Mtb growth
CCOc1ccc(C(=O)Nc2ccccc2NC(=O)c2ccc(OCC)cc2)cc1 | i
C=CCNC(=O)Nc1ccc(OCC)cc1 | i
COCCCNCCCCOc1ccc(C)cc1Br | i
NS(=O)(=O)c1ccc(NC(=O)Nc2ccc(Cl)c(Cl)c2)cc1 | i
CC(=O)Nc1ccccc1-c1ccc(C)o1 | i
S=C(NCc1ccc(Cl)cc1)Nc1nn(Cc2ccc(Cl)cc2Cl)cc1Cl | 2%
COc1ccc(CNC(=O)C2CCN(C(=O)c3ccc(Br)cc3)CC2)cc1 | i
CCCCC(=O)Nc1ccc(NC(=O)c2sc3cc(Cl)ccc3c2Cl)cc1OC | 1%
CCCc1cc(=O)[nH]c(/N=C(\N)Nc2ccc(OC)cc2)n1 | i
CCOC(=O)NC(=S)Nc1cccc(NC(=S)NC(=O)OCC)c1 | i
Cc1sc2nc(SCC(=O)N3CCc4ccccc4C3)n(-c3ccccc3)c(=O)c2c1C | i
CC(=O)N1C(C)c2ccccc2C(C)(C)CC12CCCCC2 (stereo not drawn) | i
COc1ccc(-c2noc(-c3ccccc3Br)n2)cc1OC | i
CCOC(=O)c1c(NC(=O)CC(C)C)sc2c1CCCCC2 | 4%
CNC(=S)Nc1cc(C)ccc1OC | i
C=CCN(c1ccc(C(=O)N2CCCCC2)cc1)S(C)(=O)=O | i
CC(=O)Nc1c(O)nc(SCC(=O)Nc2ccc(S(N)(=O)=O)cc2)[nH]c1=O | i
Cc1ccc(NC(=S)N2CCCCC2c2cccnc2)cc1 (stereo not drawn) | i
NCCNCCOc1cccc(Br)c1 | i
Cc1ccccc1OCc1nnc(SCC(=O)N2CCCC2)n1Cc1ccccc1 | 4%
O=S(=O)(Nc1ccc(O)c2ccccc12)c1cccc2ccccc12 | 6%
Cc1ccc(CNc2oc(-c3ccccc3Cl)nc2C#N)cc1 | 2%
O=C(Nc1nc2ccccc2s1)c1ccc(S(=O)(=O)N2CCCCC2)cc1 | i
CCOC(=O)c1c(NC(=O)CSc2nnc(CN3CCOCC3)n2C)sc2c1CCCC2 | i
O=C(NNC(=S)NCc1ccco1)c1cc(Cl)c(O)c(Cl)c1 | i
Cc1c(C(=O)Nc2ccc(C(F)(F)F)cc2)cccc1[N+](=O)[O-] | i
O=C(Nc1ccc(NC(=O)C2CC2)cc1)c1cccs1 | i
COc1ccc(NC(=O)Cc2ccccc2OC)cc1Cl | i
CC(=O)Nc1ccc(S(=O)(=O)Nc2ccccc2C#N)cc1 | i
CCOC(=O)c1c(-c2cccc([N+](=O)[O-])c2)csc1NC(=O)c1ccco1 | i
COc1cc2c(C)nc3c(cnn3-c3ccccc3)c2cc1OC | ?
Cc1cc(=O)oc2cc(NC(=S)NCCC3=CCCCC3)ccc12 | i
CCOC(=O)c1cc(Cc2ccccc2)sc1NC(=S)N(C)Cc1cn(CC)nc1C | 1%
Cc1ccc(S(=O)(=O)NCCSc2nnnn2-c2ccc(C(N)=O)cc2)cc1 | 3%
CN(C)C(=O)c1cc([N+](=O)[O-])ccc1O | i
CCC(C)c1ccccc1NC(=O)c1cccc(NC(=O)C(C)C)c1 (stereo not drawn) | 2%
O=C(CSc1n[nH]c(-c2ccc(Cl)cc2)n1)Nc1cccc(C(F)(F)F)c1 | i
Cc1cc(OCCCOc2ncnc3ccccc23)ccc1Cl | 0%
Cc1ccc(CN(CC(=O)NC2CCCC2)S(=O)(=O)c2ccc(Br)cc2)cc1 | i
CS(=O)(=O)N1CCN(c2ccccc2NC(=S)NC(=O)c2cccs2)CC1 | i
CC(=O)Nc1ccc(NC(=O)CN(c2ccc(C(C)C)cc2)S(=O)(=O)c2ccc(C)cc2)cc1 | i
COc1ccc(CNc2nc3ccccc3n2CCN2CCCCC2)cc1OC | 3%
COCCSc1ccccc1C(=O)Nc1ccc(Cl)cn1 | 2%
CC(=O)c1cccc(NS(=O)(=O)c2cc(C)ccc2C)c1 | i
Cc1ccc(-c2n[nH]c(=S)n2N=Cc2ccccc2C)cc1 | 4%
CCOc1ccc(C(=O)Nc2ccc(C)cc2[N+](=O)[O-])cc1OC | 7%
CCOc1ccc(C(=O)NC2C3CC4CC(C3)CC2C4)cc1[N+](=O)[O-] (stereo not drawn) | i
Cc1ccc(S(=O)(=O)N(CC(=O)N2CCN(C)CC2)c2ccccc2)cc1 | i
COc1cc(C(=O)Nc2ccc(OC(C)C)cc2)cc(OC)c1OC | i
COc1cc(Cl)c(C)cc1NC(=O)CSC1=C(C#N)C(c2ccccc2F)CC(=O)N1 (stereo not drawn) | i
CC(=O)c1ccc(N2C(=O)CC(N(C)Cc3ccccc3)C2=O)cc1 (stereo not drawn) | i
O=C(c1ncn[nH]1)N1CCN(c2nc(-c3ccccc3)cs2)CC1 | 27%
COc1ccc(C)cc1NC(=O)CNS(=O)(=O)c1ccc(C)cc1 | i
COc1ccc(Cc2nc3ccccc3n2CCOc2cccc(C)c2)cc1 | i
O=C(CN(c1ccc(Br)cc1)S(=O)(=O)c1ccccc1)Nc1ccc(F)cc1F | i
Cc1cc(Br)ccc1OCCOCCN1CCCC1 | i
CCOC(=O)c1c(NC(=O)CCC(=O)N2CCCC2)sc2c1CC(C)(C)OC2 | i
Cc1ccc2c(c1)C(C)CC(C)(C)N2C(=O)CSc1nc(C)cc(C)n1 (stereo not drawn) | 7%
CCOC(=O)C1CCN(C(=O)C2CCN(Cc3cccc4ccccc34)CC2)CC1 | i
Cc1cc(OCC(=O)Nn2cnnc2)ccc1Cl | i
CCCCC(=O)Nc1ccc(C(=O)N2CCN(c3cccc(C)c3C)CC2)cc1 | 1%
O=C(Nc1cccc(-c2nnc(-c3ccco3)o2)c1)c1ccc(Cl)cc1Cl | i
O=C(Nc1cccc([N+](=O)[O-])c1)c1ccc(-c2ccccc2Cl)o1 | i

# (continued)
SMILES | Mtb growth
CCCC(=O)Nc1ccc(Cl)c(NC(=O)c2c(F)c(F)c(OC)c(F)c2F)c1 | i
CCOC(=O)c1c(NC(=O)CSc2n[nH]c(-c3ccccc3)n2)sc(C)c1C | i
O=C(Nc1c(F)cccc1F)C1CCN(C(=O)c2cccc(Cl)c2)CC1 | i
COc1cc(CO)cc(I)c1OCc1ccc(C(=O)O)cc1 | 5%
Cc1cccc(NC(=S)Nc2cccc(C)c2C)c1 | i
COc1cccc(C(=O)N2CCN(C(=O)c3cccc4ccccc34)CC2)c1 | 3%
CCC(C)C(NC(=O)c1ccccc1NC(=O)c1ccco1)C(=O)OC (stereo not drawn) | 0%
CC(=O)Nc1nc(-c2ccccc2)nc2sc(C(=O)c3ccccc3)c(C)c12 | i
O=C(CS(=O)(=O)Cc1ccccc1)N1CCN(c2cccc(Cl)c2)CC1 | 3%

# Bioassay records (PubChem)
